# KCNQ2 pot = potentiators of rat KCNQ2 potassium channel | CHO-K1 KCNQ2, FluxOR thallium flux fluorescence; stronger effect = higher value | B-score at 10 µM | O88943 | 310,000 tested, 0.54% active;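 active = fluorescence ratio B-score at least 3 SD of library B-scores, with initial fluorescence B-score within 3 SD, cut at about 5.3 in these data; same plate scores as AID 2156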;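 also: B-score of peak minus minimum over baseline fluorescence ratio after K+ and Tl+ stimulus; positive B-score means potentiation of KCNQ2 with more thallium influx and brighter signal; only the inactives scoring about 0 or higher are listed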
# Target sequence (O88943 whole entry, looked up): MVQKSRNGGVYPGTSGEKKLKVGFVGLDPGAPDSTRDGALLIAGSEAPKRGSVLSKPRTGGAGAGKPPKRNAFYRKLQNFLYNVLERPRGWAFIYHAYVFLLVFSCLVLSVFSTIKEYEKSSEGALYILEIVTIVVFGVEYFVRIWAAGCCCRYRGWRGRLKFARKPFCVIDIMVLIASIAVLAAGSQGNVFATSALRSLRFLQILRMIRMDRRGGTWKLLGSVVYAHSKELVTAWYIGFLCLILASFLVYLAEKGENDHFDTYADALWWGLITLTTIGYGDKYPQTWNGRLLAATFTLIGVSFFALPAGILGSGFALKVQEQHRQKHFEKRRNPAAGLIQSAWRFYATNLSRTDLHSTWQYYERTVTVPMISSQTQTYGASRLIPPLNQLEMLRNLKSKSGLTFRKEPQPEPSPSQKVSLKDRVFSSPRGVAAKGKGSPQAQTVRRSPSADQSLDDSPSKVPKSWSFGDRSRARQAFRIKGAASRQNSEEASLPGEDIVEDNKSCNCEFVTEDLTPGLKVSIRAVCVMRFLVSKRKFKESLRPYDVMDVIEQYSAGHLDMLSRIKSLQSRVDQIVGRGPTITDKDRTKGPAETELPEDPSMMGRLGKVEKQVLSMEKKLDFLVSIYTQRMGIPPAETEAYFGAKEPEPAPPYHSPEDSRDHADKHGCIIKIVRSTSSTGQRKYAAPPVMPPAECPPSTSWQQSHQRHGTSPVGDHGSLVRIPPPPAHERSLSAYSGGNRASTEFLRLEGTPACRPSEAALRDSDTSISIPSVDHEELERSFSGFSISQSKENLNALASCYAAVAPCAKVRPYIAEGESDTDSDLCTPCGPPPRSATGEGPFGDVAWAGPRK
# KCNQ2 pot baseline = second read-out of KCNQ2 pot, no call of its own (marks repeat the call); B-score; compound at 10 µM; measured here: initial fluorescence intensity artifact check;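 brightness before thallium and not channel activity; 0 = typical well and far values either way flag optical interference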
# * marks the source's active call; other numbers are inactive results. An excerpt; the hit share may differ from the screen's.
Compound,KCNQ2 pot baseline,KCNQ2 pot
CC(C)(C)c1ccc(OCC(=O)N(Cc2cccs2)C2CCS(=O)(=O)C2)cc1 (stereo not given),-0.92,0.17
COc1ccc(-c2cn3cccnc3n2)cc1NC(=O)C(C)Oc1ccccc1 (stereo not given),-1.5,1.5
CN(CC(=O)Nc1cccc(F)c1)C(=O)CCCn1c(=O)oc2ccccc21,0.75,0.95
CCc1nnc(NC(=O)CSc2nnnn2C)s1,0.33,0.76
CCOC(=O)c1cc2c(=O)n3ccccc3nc2n(CCCOC)c1=NC(=O)c1cccnc1,0.17,1.8
O=C(Nc1ccc(OC(=O)c2ccncc2)cc1)c1ccncc1,2.6,0.23
Cc1ccc(Cl)cc1NC(=O)CSC(N)=O,3.4,0.73
C=CCN1C(=O)c2ccccc2Sc2ccc(C(=O)NC(C)C)cc21,-0.1,0.13
O=C(O)CC1SC(=Nc2ccc(O)cc2)NC1=O (stereo not given),0.49,0.13
Cn1c(CSc2nc3ccccc3s2)nnc1SCC(=O)NCc1cccnc1,-0.57,1.1
O=C(NCc1ccco1)C(c1ccc(F)cc1)N(Cc1cccnc1)C(=O)Cn1nnc2ccccc21 (stereo not given),0.19,0.34
CC(C)(C)OC(=O)N[C@@H](Cc1ccccc1)C(=O)N[C@@H](CO)[C@H](O)[C@@H]1C[C@@H]1C(=O)NC1CC1,-0.36,0.72
Cc1cc(C)cc(NC(=S)N(Cc2cccc(Br)c2)CC2CCC(C(=O)O)CC2)c1 (stereo not given),-2.7,0.98
Cc1c(C(=O)N/N=C/c2ccc(-c3ccccc3[N+](=O)[O-])o2)sc(N)c1C#N,-0.47,1.4
C=CCNC(=O)CC(=O)N/N=C/c1ccc(C(=O)OC)cc1,-0.49,1.8
COc1ccccc1CNC(=O)c1cc2ccccc2oc1=O,1,1.6
CCOc1ccc(CCNC(=O)COC(=O)c2cccc(S(=O)(=O)N3CCCCC3)c2)cc1OCC,0.6,0.23
CNC(=O)NC(=O)COc1ccc2oc3c(c2c1)CCCC3,-0.41,0.25
COc1ccc(/C=N/NC(=O)c2ccc(Cl)c(S(N)(=O)=O)c2)cc1OCC(N)=O,-0.7,0.61
CCOCCc1nnc(NC(=O)Cc2ccccc2)s1,-0.02,1.3
FC(F)(F)c1cccc(NC(=S)NCc2ccccn2)c1,-0.76,0.71
CCc1ccc(NC(=O)CN(c2ccc3c(c2)OCO3)S(=O)(=O)c2c(C)noc2C)cc1,0.23,0.53
CCC1=C2CC[C@H]3C(=O)N(CC(=O)OC)C(=O)[C@H]3[C@H]2[C@@]2(C)C(=NCC(=O)OC)OC(=O)N2C1=O,-0.05,0.05
S=C(c1ccc(Br)cc1)N1CCN(Cc2ccccc2)CC1,-2.2,1.5
COc1ccc(C)cc1S(=O)(=O)N(C)CC(=O)N1CCN(C)CC1,-0.05,0.21
CCC1CCCCN1C(=S)Nc1cccc(S(=O)(=O)N(C)C)c1 (stereo not given),-0.34,0.28
Cc1ccc(Nc2nc(-c3sc(NC(=O)c4ccc([N+](=O)[O-])cc4)nc3C)cs2)cc1,-0.09,0.76
O=C(O)CNC(=S)N(Cc1ccccc1Cl)C1CCCCC1,-0.8,0.89
OC(COc1ccccc1)CN1CCC(Cc2ccccc2)CC1 (stereo not given),-0.64,0.84
CCN(C(=O)c1cc2c(=O)[nH]c3ccc(C)cc3c2s1)c1ccc(F)cc1,-0.14,0.05
O=C(NC(=O)c1ccccc1O)c1ccc(C(F)(F)F)cc1,-0.21,0.87
Cc1cc2c(=O)n(CC(=O)NCC(=O)N3CCN(Cc4ccccc4)CC3)cnc2s1,1.1,0.4
CC(=O)N1CCCC(C(=O)c2ccc3c4c(cccc24)CC3)C1 (stereo not given),3.9,0.67
COc1ccccc1/C=C/C(=O)c1ccc(NC(C)=O)cc1,-0.16,5.1
COc1ccc(C(=O)NNC(=O)CSc2nnc(COc3ccccc3)n2C)cc1,2.2,0.26
CCc1cc2c(SCC(=O)c3cccs3)ncnc2s1,2.2,0.17
COc1ccc(NC(=O)c2sc3nc(C)nc(N4CCN(c5ccccn5)CC4)c3c2C)c(OC)c1,0.29,0.23
CCOC(=O)C1CCN(C(=O)Nc2ccc(OC)c(OC)c2)CC1,-0.15,1.4
NC(=O)CC(NC(=O)c1ccccc1)c1ccc(NCCc2cccc(F)c2)c([N+](=O)[O-])c1 (stereo not given),-1.4,0.39
CN(CC#CCC(c1ccccc1)c1ccccc1)C(C)(C)C,-0.78,0.02
COc1ccc(-c2cc(C(F)(F)F)nc(SCC(=O)N3CC(C)OC(C)C3)n2)cc1OC (stereo not given),-0.86,0.01
COCCNC(=O)c1c(CSc2ccc(Cl)cc2)noc1C(=O)NCc1ccccc1,0.81,0.23
CCOC(=O)C1=C(C)NC(=O)C1(NC(=O)c1cccnc1)C(F)(F)F (stereo not given),1.9,0.62
Cc1cc(C)cc(N(C(C)C(=O)N2CCCC2)S(C)(=O)=O)c1 (stereo not given),-0.3,0.78
Cc1cc(C(=O)OCC(=O)NCc2cccs2)c2ccccc2n1,-0.82,0.17
Cc1ccsc1C(=O)NNC(=O)c1ccc(NS(=O)(=O)c2cccs2)cc1,-0.56,0.4
CCOC(=O)C1CCN(C(=O)Cn2nc(C)n3c(cc4cc(C)ccc43)c2=O)CC1,-0.94,1.5
O=C(COc1ccc(-n2cnnn2)cc1)Nc1ccccc1Cl,0.95,0.34
CCOc1ccc(N2C(=O)CC(NCC3CCCO3)C2=O)cc1 (stereo not given),-0.34,0.04
CCC(C)C(NC(=O)C(C)NC(=O)CNC(=O)CNC(=O)OCc1ccccc1)C(=O)OC (stereo not given),0.68,1
CCCN(Cc1ccccc1)S(=O)(=O)c1ccc(N2C(=O)CCC2=O)cc1,1.4,0.59
CN(CCC#N)C(=O)COC(=O)c1ccc2[nH]c3c(c2c1)CCCC3,0.01,2.4
CCC1(CC)NC(=O)N(CC(=O)OCC(=O)Nc2sccc2C#N)C1=O,-0.41,1.9
Clc1ccc2c(N3CCOCC3)ccnc2c1,0.02,0.09
Cc1cnc(C(=O)NCc2ccc(Cl)cc2Cl)cn1,-0.98,1.9
O=C(NCc1ccco1)c1sc2cc(F)ccc2c1Cl,1.4,0.02

# (further entries)
Compound,KCNQ2 pot baseline,KCNQ2 pot
Cc1ccc(S(=O)(=O)NCC2CCCO2)cc1[N+](=O)[O-] (stereo not given),-1.1,1.9
Cn1c(N)c(C(=O)COC(=O)CCC(=O)c2cccs2)c(=O)n(C)c1=O,0.03,0.94
CC(C)OC(=O)/C(C#N)=C\c1cccnc1,-1.3,1.5
N#C/C(=C\c1ccccc1C(=O)O)c1nc2ccccc2[nH]1,0.64,0.16
Cc1c(C(=O)Oc2ccc(F)cc2)sc2ncn(Cc3cccc(F)c3)c(=O)c12,-0.19,0.55
COc1cccc(/C=C/C(=O)OCC(=O)Nc2ccc(Cl)c(S(=O)(=O)N(C)C)c2)c1,0.5,1
Cc1c(/C=N/NC(=O)c2ccc(O)cc2)c2ccccn2c1C(=O)c1ccc(F)cc1,-1.5,0.55
Cn1nnc(NC(=O)/C=C/c2ccco2)n1,0.01,0.6
OCCN(/C=N/c1nc(-c2ccc(Br)cc2)cs1)CCO,0.11,0.06
CC1Oc2ccccc2OC1(O)c1ccccn1 (stereo not given),0.05,0.6
Cc1ccccc1NC(=O)c1cccc(Cn2cc(Br)c([N+](=O)[O-])n2)c1,0.55,0.27
CCOc1ccccc1Oc1c(C)oc2c(CN3CCN(CCO)CC3)c(O)ccc2c1=O,0.09,0.33
COc1ccc(C(=O)N(C)Cc2ccc(C)o2)cc1OC1CCN(C(C)C)CC1,-0.56,1
C/C(CCc1ccco1)=N/NC(=O)CCC(=O)Nc1ccc(Br)cc1,0.38,0.27
CCOC(=O)NC(=O)/C(C#N)=C\Nc1sccc1C(=O)OC,-0.25,0.01
O=C(Nc1cccc2ccccc12)OCc1cncs1,0.07,4.5
CCC/C(O)=C1\C(=O)CCCC1=NCCc1c(C)[nH]c2ccccc12,-0.03,1
C=CCc1c(C)nc(N)[nH]c1=O,0.49,0.69
CC1CC(C)CN(CC(C)(C)NS(=O)(=O)c2ccc(Cl)cc2)C1 (stereo not given),-2.9,0.46
Cc1ncsc1CCOC(=O)c1ccc(N2CCOCC2)c([N+](=O)[O-])c1,-0.03,1.8
COc1ccc(CNC(=O)C2CCN(C(=O)c3ccccc3)CC2)cc1,1.6,0.02
Cc1ccc(COC(=O)c2nn(-c3ccccc3)nc2N)cc1,0,0.03
CCCn1c(=N)c(C(=O)NC2CCCC2)cc2c(=O)n3cccc(C)c3nc21,0.4,1.5
COc1cccc(CNC(=O)C(=O)N2CCC3(CC2)OCCN3S(=O)(=O)c2ccc(C)cc2)c1,-1.4,0.08
Cc1ccc(C2=NS(=O)(=O)N(C)C(C(=O)NCc3ccccn3)=C2)cc1,-1.4,1.1
Cn1c(C(=O)OC(C(=O)NCc2ccco2)c2ccncc2)cc2sccc21 (stereo not given),-0.01,0.21
Cc1cc(C)cc(Oc2cc(NC(=O)c3cn(C)nc3C)cc([N+](=O)[O-])c2)c1,5.5,1.3
COc1ccc(C2N(c3cccc(Cl)c3)C(=O)C3CCCN32)cc1 (stereo not given),1.1,1.1
CCOC(=O)c1cc2cc(OC)ccc2[nH]1,-0.9,1.2
Cc1ccc(-c2n[nH]c(=S)n2/N=C/C=C\c2ccccc2[N+](=O)[O-])cc1,-0.66,1.1
CCOC(=O)C1=NN(C(C)=O)C2(CC(=O)N(c3cccc(C)c3)C2=O)C1 (stereo not given),-0.81,2
C=CCOC(=O)C1=C(C)NC(SCC(=O)Nc2nccs2)=C(C#N)C1c1ccc(Cl)cc1 (stereo not given),-0.64,1.2
COc1cc([N+](=O)[O-])ccc1NC(=O)CSc1ccccn1,-0.69,1.8
Cc1ccc(C)c(NS(=O)(=O)c2ccc(OCC(=O)N3CCOCC3)cc2)c1,-0.54,0.44
CCOc1ccccc1N(C(=O)c1ccco1)C(C(=O)NC1CCCC1)c1cccs1 (stereo not given),-1.2,0.01
O=[N+]([O-])c1nn(-c2cccc(Cl)c2)n(O)c1=NCc1cccnc1,-0.5,0.4
Cc1ccc(-n2nnnc2C(Cl)(Cl)c2nnnn2-c2ccc(C)cc2)cc1,0.75,0.03
CCCC(=O)Nc1ccc2c(c1)nc1n2CCSC1,0,0.35
Cc1c(C(=O)N2CCOCC2)cc(C(C)(C)C)n1-c1ccccc1,-0.1,0.42
COc1ccc(C2CC(c3ccc(Cl)cc3Cl)n3nc(N)nc3N2)cc1 (stereo not given),0.37,0.18

# Compounds shown so far with bromine (5):
Compound,KCNQ2 pot baseline,KCNQ2 pot
Cc1cc(C)cc(NC(=S)N(Cc2cccc(Br)c2)CC2CCC(C(=O)O)CC2)c1 (stereo not given),-2.7,0.98
S=C(c1ccc(Br)cc1)N1CCN(Cc2ccccc2)CC1,-2.2,1.5
OCCN(/C=N/c1nc(-c2ccc(Br)cc2)cs1)CCO,0.11,0.06
Cc1ccccc1NC(=O)c1cccc(Cn2cc(Br)c([N+](=O)[O-])n2)c1,0.55,0.27
C/C(CCc1ccco1)=N/NC(=O)CCC(=O)Nc1ccc(Br)cc1,0.38,0.27

# The listing continues:
Compound,KCNQ2 pot baseline,KCNQ2 pot
O=C(NCCCN1CCOCC1)C(=O)NCCc1ccccc1,-0.01,0.06
COc1ccc(/C=N/NC(=O)CN(c2ccc(OC)cc2)S(=O)(=O)c2ccccc2)cc1,-1.3,1.3
Cc1sc(NC(=O)c2ccco2)c(CN2CCC(C)CC2)c1C,-1.9,1.9
Cc1ccc(NS(=O)(=O)c2csc(C(N)=O)c2)c(C)c1,1.7,1.8
CC(C)c1nc2ccc(C(=O)O)cc2[nH]1,0.56,0.55
Cc1cc(C)c(NC(=O)CCN2C(=O)c3ccccc3S2(=O)=O)c(C)c1,-0.49,1.1
O=C(NCCCN=C1NS(=O)(=O)c2ccccc21)c1ccc(S(=O)(=O)N2CCOCC2)cc1,-1.3,0.49
C=CCn1c(Cc2ccc(OCC)cc2)nnc1SCC(N)=O,-2,0.11
CCOc1ccc(NC(=O)CCC(=O)NNC(=O)c2ccc(Br)o2)cc1,-1.6,0.55
CN(C)c1ccc(C=C2C(=O)OC(C)(C)OC2=O)cc1,0.33,1.7
COc1ccc(C2CC(c3ccccc3)=NN2C(=O)COC(=O)c2nc3nccc(C)n3n2)cc1 (stereo not given),-0.28,2.4
CCSc1nc(-c2cccnc2)ccc1C#N,1.1,0.04
CCOC(=O)c1ccc(CNC(=O)C2CCC(=O)N(Cc3cccc(OC)c3)C2)o1 (stereo not given),-1.3,0.83
CCCCc1c(O)cc(C)[nH]c1=O,-0.19,0.01
CC(C)n1nnnc1SCC(=O)Nc1ccccc1N1CCOCC1,0.71,0.82
COC(=O)C1CSC(C(=O)OC)N1C(=O)Nc1ccc(Cl)c(Cl)c1 (stereo not given),0.87,1.2
Cc1ccc2c(c1)NC(=O)C(CC(=O)NCCN(C)C)O2 (stereo not given),-0.44,1.1
COc1cc(/C=N\NC(=O)CN2CCOCC2)ccc1OCC(=O)Nc1ccc(C)c(C)c1,-2,0.53
O=C(CN(C(=O)c1nsc(Cl)c1Cl)c1cccc(F)c1)NC1CCCC1,-0.45,0.03

# Assay outcomes from PubChem BioAssay.
